# Resorufin fluor = compound fluoresces in the resorufin spectral region; Compound fluorescence, resorufin region 547/598 nm, buffer; active compounds read high; max dye-equivalent concentration, M; 0.04% of 59,000 active; AID 588; active = above 10 nM dye equivalent; inconclusive = 1 to 10 nM; inactive = 1 nM or less; a few of its hits are not listed in these tables; note: highest value over a series up to 38 µM
#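 Intrinsic fluorescence profiled in the resorufin window (ex 547 nm, em 598 nm) after 15 min at room temperature in pH 8.0 Tris buffer (100 mM); responses normalized against a six-point resorufin standard series as dye-equivalent concentration.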
# A647 autofl = compound fluoresces in the A647 spectral region | Compound fluorescence, A647 channel (570/671 nm), Tris buffer | max dye-equivalent concentration, M | 59,000 tested, under 10 active | AID 592; active means above 1 µM dye equivalent; inconclusive means 0.1 to 1 µM; inactive means 0.1 µM or less;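 note: values scaled relative to a standard on each plate; highest value over a series up to 38 µM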
#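 Fluorescence read (570 nm ex, 671 nm em) after 15 min RT incubation of compounds in 100 mM Tris buffer, pH 8.0; values expressed as dye-equivalent concentration against a six-point A647 standard series on each plate.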
# AID923 = qHTS Assay for Allosteric/Competitive Inhibitors of Caspase-1: Spectroscopic Profiling in AFC Spectral Region | compound fluorescence, AFC spectral region (405/520 nm); almost no hit is shown here | Potency, µM (series often up to 57.5 µM), without a hit: at the top dose fluorescence increase, actives largely listed as activators | 1.1% of 75,000 active | AID 923, 2007; active = well fitted activation curve with a large enough effect; inconclusive = small, poorly fitted or top-dose-only effect;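 note: potency is the fitted concentration of half-maximal effect; 0% is about no effect; scaled to a free AFC standard on each plate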
#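 Baseline compound fluorescence (AFC region, 405 nm ex/520 nm em) taken from the intercept of kinetic reads with 50 nM caspase-1 and 5 uM Ac-WEHD-AFC; normalized to an on-plate AFC standard curve; compounds titrated up to 57 uM.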
# TSHR ag = TSH receptor (human) agonism | P16473 | HEK293-CNG-TSHR cells (CNG channel as cAMP sensor), membrane potential dye, cAMP | Potency, µM (titrated, usually from 57.1 µM), inactives show top-dose activation, actives largely listed as activators | 0.48% of 73,000 active | AID 926; active = well fitted activation curve of enough size with the parental cells flat; inconclusive = any curve in the parental cells; inactive = parental cells flat and receptor cells flat or falling; note: potency is the fitted concentration of half-maximal effect; % of control where 0% means no effect; weak receptor curves with flat parental cells got no call and are not listed
# Target sequence (P16473 whole entry, looked up): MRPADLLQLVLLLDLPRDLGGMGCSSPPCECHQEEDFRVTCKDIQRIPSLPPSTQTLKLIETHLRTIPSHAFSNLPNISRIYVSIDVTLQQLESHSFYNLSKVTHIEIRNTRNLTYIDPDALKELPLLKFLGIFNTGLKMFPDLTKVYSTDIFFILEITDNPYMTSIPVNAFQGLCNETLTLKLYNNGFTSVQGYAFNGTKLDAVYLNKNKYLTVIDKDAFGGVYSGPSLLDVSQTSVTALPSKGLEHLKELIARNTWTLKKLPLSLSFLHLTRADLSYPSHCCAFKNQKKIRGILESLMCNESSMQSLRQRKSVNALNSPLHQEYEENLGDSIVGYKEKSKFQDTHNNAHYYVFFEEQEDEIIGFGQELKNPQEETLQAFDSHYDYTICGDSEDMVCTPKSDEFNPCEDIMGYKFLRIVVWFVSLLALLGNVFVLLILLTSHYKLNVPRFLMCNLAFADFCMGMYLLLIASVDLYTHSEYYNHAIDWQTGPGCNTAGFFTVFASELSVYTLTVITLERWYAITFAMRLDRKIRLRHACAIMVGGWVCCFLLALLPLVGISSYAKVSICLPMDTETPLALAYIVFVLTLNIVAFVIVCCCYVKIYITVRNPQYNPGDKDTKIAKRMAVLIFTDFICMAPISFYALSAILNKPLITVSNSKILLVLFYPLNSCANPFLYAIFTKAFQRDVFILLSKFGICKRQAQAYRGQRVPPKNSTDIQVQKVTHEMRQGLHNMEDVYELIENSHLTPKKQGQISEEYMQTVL
#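 HEK 293 cells stably expressing TSHR and a cAMP-gated CNG channel; parental CNG-only cells as counterscreen. Cells preloaded 60 min with membrane potential dye plus 100 uM RO 20-1724, then compound 30 min; fluorescence read at 590 nm.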
# A488 autofl = A488 region autofluorescence. max dye equivalency, M. AID 591. 0.1% of 59,000 active. compound autofluorescence, A488 spectral region, dye equivalency; active compounds read high; active = above 10 nM dye equivalent; inconclusive = 1 to 10 nM; inactive = 1 nM or less; about half of its hits are not listed in these tables;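 note: highest value over a series up to 38 µM; compound alone in buffer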
#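 Compounds pin-transferred into 100 mM Tris buffer, pH 8.0, incubated 15 min at room temperature, then imaged with 480 nm excitation/540 nm emission filters. Fluorescence converted to Alexa 488 dye-equivalent concentration via an on-plate six-point A488 standard curve.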
# * hit, by the source's call; i = inactive; ? = inconclusive; · = not tested or not shown; & = joins results of further samples; [ ] = remark or other dose. Some of the compounds tested; rates above refer to the full screens.
item	Structure	Resorufin fluor	A647 autofl	AID923	TSHR ag	A488 autofl
1	Nc1nnc(SCc2coc(-c3ccc(Cl)cc3)n2)s1	i	1e-09	-2.2%	5%	i
2	Cc1cc(C)c2c(CN3CCN(CCO)CC3)cc(=O)oc2c1	i	1e-09	1.6%	16%	i
3	Cc1nc2sc3c(NCc4ccco4)ncnc3c2c2c1COC(C)(C)C2	i	5e-08	·	·	i
4	CC(=O)c1ccc(OCC(O)CN2CCCC(C)C2)cc1 (stereo not drawn)	·	·	-1.0%	0%	·
5	CC(C)(C)NC(=O)CSc1nnnn1C(C)(C)C	i	1e-08	2.0%	-2%[11.4 µM]	i
6	Cc1cccc(CNc2nc(-c3ccc(C(=O)N(C)C)cc3)nc3ccccc23)c1	i	7e-09	-0.1%	?	i
7	Cc1noc(C)c1C(=O)N1CCC2(CC1)CCN(c1cccc(-c3ccccc3)c1)CC2	i	2.8e-08	2.9%	-5%	i
8	O=C(Oc1ccc(-c2nnco2)cc1)N1CCOCC1	i	9.9e-09	-0.1%	1%	i
9	CCCCN(CCCNC(=O)C1CCCN(S(=O)(=O)CC)C1)Cc1ccccc1 (stereo not drawn)	i	1e-09	-0.3%	2%	i
10	Cc1oc(-c2cccc(Cl)c2)nc1CN1CCC(C(=O)N2CCN(c3ccccn3)CC2)CC1	·	·	0.1%	2%	·
11	CCCCCn1c(=O)c(C(=O)OCC)c(O)c2ccccc21	i	1.6e-08	-1.6%	-10%	i
12	COc1ccc(Cl)cc1N1CCN(CCNC(=O)Nc2ccccc2C)CC1	i	1e-09	-2.1%	-1%	i
13	CCOC(=O)c1[nH]c(C)c(C(=O)Nc2ccc(C)c(C)c2)c1C	·	·	-1.3%	28%	·
14	Cc1cc(C)c2c(CC(=O)NCc3ccco3)coc2c1	i	4e-09	-3.9%	32µM*	i
15	COc1nc(N(C#N)CC(N)=O)nc(N2CCCC2)n1	i	1e-09	0.4%	2%[11.4 µM]	i
16	Cc1oc2cc(O)cc(O)c2c(=O)c1-c1ccc2c(c1)OCCCO2	i	9.5e-09	-4.1%	4%	i
17	O=C(c1ccccc1)c1cncc(Br)c1	i	4e-09	-1.9%	3%	i
18	COc1cc(C(=O)NCCC(=O)NCCCN2CCCCC2C)cc(OC)c1OC (stereo not drawn)	i	1e-09	1.2%	0%	i
19	CC(=O)Nc1ccc(S(=O)(=O)N2CCCN(S(=O)(=O)c3ccc(NC(C)=O)cc3)CC2)cc1	i	4.9e-09	2.2%	-7%	i
20	CCC(C)Cn1c(S(=O)(=O)O)nc2ccccc21 (stereo not drawn)	i	2.6e-09	-0.8%	?	i
21	CCOC(=O)c1ccc(N2C(=O)c3n[nH]c(C)c3C2c2ccc(OC)cc2OC)cc1 (stereo not drawn)	i	3.8e-08	-4.2%	·	i
22	O=C(NCCCN1CCN(Cc2ccccc2)CC1)c1nnc(Cc2c(F)cccc2Cl)o1	i	1e-09	1.0%	16%[11.4 µM]	i
23	O=C(c1ccco1)N1CCN(c2ncnc3c(-c4ccccc4)nsc23)CC1	i	1e-09	4.3%	18%	i
24	O=C(CN1C(=O)c2ccccc2C1=O)N1CCN(c2nnc(-c3ccccc3)c3ccccc23)CC1	i	5.2e-09	3.5%	4%	i
25	COC(=O)c1[nH]c2ccc(C)cc2c1NC(=O)C(C)N1CCN(C2CCCCC2)CC1 (stereo not drawn)	i	1e-09	-2.3%	?	i
26	C1CCC2OC2C1 (stereo not drawn)	·	·	-1.6%	2%	·
27	CCN(CC)c1ccc2cc(C(=O)Nc3ccc(-n4cnnn4)c(OC)c3)c(=O)oc2c1	i	2.5e-08	-1.7%	-4%	3.4e-08M*
28	CC(C)OCCCNC(=O)c1ccncc1	i	1e-09	-0.7%	?	i
29	COc1ccc(Br)cc1C1CC(=O)N2CN(Cc3ccccc3)CSC2=C1C#N (stereo not drawn)	·	·	-2.2%	-2%	·
30	COc1ccc(Cl)cc1N1CC(c2nc3ccccc3[nH]2)CC1=O (stereo not drawn)	·	·	3.2%	6%	·
31	O=S(=O)(c1ccc(OCC(O)CN2CCC(Cc3ccccc3)CC2)cc1)N1CCOCC1 (stereo not drawn)	i	2.6e-09	2.5%	-31%[inhibitor]	i
32	Cc1c(C#N)c2ccccc2n1CC(=O)NCC1CCCO1 (stereo not drawn)	·	·	3.2%	8%[11.4 µM]	·
33	Cc1ccc2c(c1)N(C(=O)CSc1nncn1C)C(C)(C)c1ssc(=S)c1-2	i	2.5e-08	0.7%	-14%	i
34	COC(=O)Cn1c(CN2CCOCC2)nc2c1c(=O)n(C)c(=O)n2C	·	·	0.7%	0%	·
35	O=C(NCC12CC3CC(C1)CC(CNC(=O)N1CCCC1)(C3)C2)N1CCCC1	i	4.2e-09	0.3%	18%	i
36	CCN1CCN(C2CCN(C(C)=O)CC2)CC1	·	·	0.7%	-7%	·

# 3 entries picked at random from the list so far, as already listed:
item	Structure	Resorufin fluor	A647 autofl	AID923	TSHR ag	A488 autofl
28	CC(C)OCCCNC(=O)c1ccncc1	i	1e-09	-0.7%	?	i
32	Cc1c(C#N)c2ccccc2n1CC(=O)NCC1CCCO1 (stereo not drawn)	·	·	3.2%	8%[11.4 µM]	·
31	O=S(=O)(c1ccc(OCC(O)CN2CCC(Cc3ccccc3)CC2)cc1)N1CCOCC1 (stereo not drawn)	i	2.6e-09	2.5%	-31%[inhibitor]	i

# Next part.
item	Structure	Resorufin fluor	A647 autofl	AID923	TSHR ag	A488 autofl
37	COC(=O)c1ccccc1NC(=O)C1CC(=O)N(c2ccc(F)cc2)C1 (stereo not drawn)	i	1e-09	-0.6%	?	i
38	Cc1ccc(C(=O)O)cc1S(=O)(=O)N1CCC(C(=O)O)CC1	i	2.7e-08	-3.0%	-1%	i
39	O=C1C(=O)N(CCCN2CCOCC2)C(c2cccs2)/C1=C(/O)c1ccc2c(c1)OCO2 (stereo not drawn)	i	1e-09	-1.2%	20%	i
40	O=S(=O)(CCSc1nc2ccccc2o1)c1nc2ccccc2s1	i	5.8e-09	1.8%	35%	i
41	CNc1oc(-c2ccccc2)nc1C#N	·	·	4.4%	-7%	·
42	CC(=O)Nc1ccc(S(=O)(=O)N2CCCN(S(=O)(=O)c3ccc(C)cc3)CC2)cc1	i	2.2e-09	-0.6%	6%	i
43	COc1ccc2[nH]c(=O)c(CN(C(=O)c3cccnc3)c3ccccc3OC)cc2c1	i	2e-08	4.4%	11%	i
44	CN(C)CCOC(=O)COc1ccc(Cl)cc1	i	1.8e-09&4.2e-08	1.0%	9%[25.6 µM]	i
45	CCc1cc(=O)oc2cc(C)cc(OC(C)C(=O)O)c12 (stereo not drawn)	i	2.4e-08	0.3%	-7%	i
46	CCOC(=O)C1=C(C)N=c2s/c(=C\C(=O)OC)c(=O)n2C1c1ccc(OC)cc1 (stereo not drawn)	·	·	0.2%	13%	·
47	CCc1cc2c(SCC(=O)O)ncnc2s1	i	1e-09	-0.3%	3%	i
48	Cc1cccc(-n2c(CNC(=O)c3ccccc3)nnc2SCC(=O)Nc2nccs2)c1	·	·	0.1%	7%	·
49	O=C(Cn1c(=O)n(Cc2ccco2)c(=O)c2ccccc21)NCC1CCCO1 (stereo not drawn)	i	5.2e-09	-0.6%	7%	i
50	Cc1nc2nc(-c3ccco3)[nH]n2c(=O)c1Cc1ccccc1	i	3.2e-08	18%	21%	i
51	CCCCc1nnc(SCCSc2nnc(CCCC)n2N)n1N	i	4.3e-08	-0.6%	0%	i
52	O=C(O)c1ccccc1Cl	·	·	0.5%	-5%	·
53	Cn1c(=O)c2c(nc(NCCNC(=O)c3ccco3)n2Cc2ccc(Cl)cc2Cl)n(C)c1=O	i	8.5e-09	-0.6%	9%	i
54	O=C(Cn1cccc1)Nc1ccc(OC(F)(F)F)cc1	i	2.3e-08	-0.8%	0%	i
55	O=C1CC(c2cccs2)Cc2nc(NCC3CCCO3)ncc21 (stereo not drawn)	i	2.3e-08	0.3%	5%	i
56	CN(C)c1ccc(-c2cc(N(C)Cc3ccco3)ncn2)cc1	i	1.4e-09	5.8%	·	i
57	O=C1c2oc3ccc(F)cc3c(=O)c2C(c2ccncc2)N1CCN1CCOCC1 (stereo not drawn)	·	·	1.9%	-2%	·
58	CC(=O)N1c2ccccc2C(=O)OC1c1cccnc1 (stereo not drawn)	i	3.7e-08	-0.7%	0%	i
59	Cc1c(C(=O)NCCCN2CCOCC2)sc2ncnc(N3CCN(c4ccccc4)CC3)c12	i	5.8e-09	-0.2%	?	i
60	CCc1ccccc1NC(=O)N[C@@H](C)C(=O)OC	i	5.4e-08	-1.6%	-1%	i
61	Cc1sc2nc(SCC(=O)NCc3ccco3)n(-c3ccccc3)c(=O)c2c1C	i	1e-09	0.0%	·	i
62	CCc1cc(=O)oc2c(CN3CCCC3)c(O)c(Cl)cc12	i	1e-09	·	·	i
63	CCN(CC)CCCN(Cc1cc2cc3c(cc2[nH]c1=O)OCCO3)C(=O)Nc1ccccc1	i	1.6e-09	-3.0%	7%	i
64	O=C1CCC(=O)N1OCCCOc1ccc(Br)cc1Cl	i	1e-09	0.2%	1%	i
65	CCCCOC(=O)c1ccc(NC(=O)C2CCCO2)cc1 (stereo not drawn)	i	3.8e-08	-2.3%	11%	i
66	CC(=O)Nc1ccc(NC(=O)N2CCCCC2)cc1	i	1e-09	-0.1%	-1%	i
67	CC(=O)C1=C(O)C(=O)N(c2cc(C(C)(C)C)on2)C1c1ccc(Br)cc1 (stereo not drawn)	i	1e-09	-2.2%	-6%	i
68	CC(=O)OCCNC(=O)c1cccnc1	·	·	0.0%	-1%	·
69	Cc1cc(C(=O)NCCCN2CCCC2=O)no1	i	1.9e-08	-0.6%	-12%	i
70	O=C(Nc1cccc(NC(=O)c2ccc(Br)o2)n1)c1ccc(Br)o1	i	1.8e-08	0.5%	3%[11.4 µM]	i
71	O=C(Nc1ccc(Oc2ccccc2)cc1)c1ccco1	i	2.5e-09	0.8%	16%	i
72	O=C(CSc1nnc(-c2cnccn2)n1Cc1ccco1)Nc1ccc(Br)cc1	i	1.8e-08	0.7%	?	i
73	Cc1cccc(N2CCN(C(=O)C3CCN(S(=O)(=O)c4cccc5cccnc45)CC3)CC2C)c1 (stereo not drawn)	·	·	-1.5%	6%	·
74	CN(C)C(=O)c1ccc(-c2nccc(NCc3cccs3)n2)cc1	i	2.6e-08	1.5%	15%	i
75	Cc1ccccc1NCc1ccccc1O	i	1e-09	0.8%	-12%	i
76	Cc1ccc(/C=N/n2c(C)nnc2C)cc1	·	·	1.6%	8%	·
77	CCOC(=O)CC(/C(C)=N\O)c1ccccc1 (stereo not drawn)	i	1e-09	1.1%	11%	i
78	Cc1cc(C)nc(-n2nc(C)c(C3(O)C(=O)Nc4ccc(F)cc43)c2N)n1 (stereo not drawn)	i	2.7e-08	-1.1%	-12%	i
79	CC(NC(=O)C1CCN(c2nnc(-n3cccc3)s2)CC1)C12CC3CC(CC(C3)C1)C2 (stereo not drawn)	i	4.7e-09	0.2%	11%	i
80	O=C(Nc1ccccc1Oc1ccccc1)C1CC1	·	·	1.6%	11%[11.4 µM]	·
81	Cc1nc(CC(=O)Nc2nc(C(C)(C)C)cs2)cs1	i	1.6e-09	1.2%	6%	i
82	CCCC(=O)Nc1ccc(-c2nc3cc(C)ccc3o2)cc1	i	8.6e-09	-0.2%	-8%	i
83	COc1ccc(S(=O)(=O)n2c(CCN3CCOCC3)nc3ccccc32)cc1	i	3e-08	-0.7%	14%	i
84	CCCCOC(=O)n1c(=O)oc2cc(S(=O)(=O)N3CCCCC3)ccc21	i	9.3e-09	0.9%	7%	i
85	CCNc1ncc2nc(CCc3ccccc3)c(=O)n(-c3ccc(OC)cc3)c2n1	i	8.4e-09	21%	?	i
86	COc1cc(OC)c(NS(=O)(=O)c2coc(C(N)=O)c2)cc1Cl	·	·	-3.3%	-3%	·
